KCNQ2 block – KCNQ2 potassium channel inhibitors, primary screen, cell-based, CHO-K1, FluxOR thallium flux, B-score (AID 2156); Potassium voltage-gated channel subfamily KQT member 2 (Rattus norvegicus), O88943; 20 min; hits give low values; only compounds with negative scores are shown here; some inactives read as strong as hits; B-score at 10 µM; hit rate 1.1% among 310,000;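 active means fluorescence ratio B-score at most minus 3 library SDs, with starting brightness B-score within 2 library SDs, cut at about -5.5 in these data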
Target sequence (O88943 whole entry, looked up): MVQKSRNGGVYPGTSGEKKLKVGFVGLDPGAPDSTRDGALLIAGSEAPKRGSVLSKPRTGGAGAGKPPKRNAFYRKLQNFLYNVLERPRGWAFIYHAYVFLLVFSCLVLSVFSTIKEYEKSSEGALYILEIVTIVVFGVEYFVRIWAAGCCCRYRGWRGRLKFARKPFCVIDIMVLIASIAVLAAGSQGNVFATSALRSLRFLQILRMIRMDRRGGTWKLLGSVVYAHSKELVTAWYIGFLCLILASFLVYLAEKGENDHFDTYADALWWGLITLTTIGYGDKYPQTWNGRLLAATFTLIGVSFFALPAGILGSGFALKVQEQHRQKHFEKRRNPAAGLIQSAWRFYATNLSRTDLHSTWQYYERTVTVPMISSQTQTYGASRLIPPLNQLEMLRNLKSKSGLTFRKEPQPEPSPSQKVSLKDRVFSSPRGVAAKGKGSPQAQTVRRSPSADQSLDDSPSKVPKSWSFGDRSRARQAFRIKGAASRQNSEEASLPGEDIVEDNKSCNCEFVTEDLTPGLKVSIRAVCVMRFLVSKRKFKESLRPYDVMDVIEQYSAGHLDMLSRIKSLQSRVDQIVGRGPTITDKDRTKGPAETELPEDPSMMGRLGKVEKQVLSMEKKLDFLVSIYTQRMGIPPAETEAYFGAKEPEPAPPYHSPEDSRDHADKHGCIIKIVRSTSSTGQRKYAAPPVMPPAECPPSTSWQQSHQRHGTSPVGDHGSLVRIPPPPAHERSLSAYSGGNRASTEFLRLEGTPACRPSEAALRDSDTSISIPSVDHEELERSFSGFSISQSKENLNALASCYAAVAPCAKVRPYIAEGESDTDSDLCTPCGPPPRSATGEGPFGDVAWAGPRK
KCNQ2 block baseline – second read-out of KCNQ2 block, no call of its own (marks repeat the call); B-score; measured here: initial fluorescence intensity artifact check;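 brightness before thallium and not channel activity; 0 = typical well and far values either way flag optical interference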
* = called active by the depositor; i = inactive. This is a subset (hit frequency here may not be typical).

Values run as follows: KCNQ2 block, KCNQ2 block baseline
> O=Nc1c(O)n(Cc2ccc(Cl)c(Cl)c2)c2ccccc12
 : i, 3.7
> CCN(C(=O)Cc1c(C(=O)O)[nH]c2ccccc12)c1ccc(OC)cc1
 : i, -0.05
> Cc1c(NC(=O)C(C)N2C(=O)C3CCCCC3C2=O)c(=O)n(-c2ccccc2)n1C (configuration not stated)
 : i, 0.01
> O=C(CN1C(=O)/C(=C/c2ccccc2)SC1=S)Nc1ncc(Cc2ccccc2)s1
 : i, -0.22
> Cc1ccc(C2=NC(C(F)(F)F)(C(F)(F)F)c3c(n(-c4ccc(F)cc4)c(=O)[nH]c3=O)N2)cc1
 : i, 1.5
> Cc1cccc(-c2nc(C#N)c(NCC3CCCO3)o2)c1 (configuration not stated)
 : i, -0.12
> Cn1c(=O)cc(SCC(=O)NCc2ccco2)c2ccccc21
 : i, -0.2
> S=c1[nH]nc(-c2ccccn2)n1/N=C/c1ccc(-c2ccccc2Br)o1
 : i, -1.4
> Cc1c(CN2CCC(CO)(CCOc3ccccc3)CC2)[nH]c2c(Cl)cccc12
 : i, 0.61
> O=C(c1ccccc1)c1nc2c(n1O)CCCCC2
 : i, -0.18
> O=C1c2cccc3c(Cl)ccc(c23)C(=O)N1O
 : i, 1.7
> CC(Cc1ccccc1)C(=O)N[C@@H](CO)Cc1ccccc1 (some centres not stated)
 : i, -0.22
> CCN(CC)C(=O)CSc1nnc(CNc2ccc(F)cc2)n1Cc1ccco1
 : i, 1.2
> O=C(COc1cc(O)c2c(=O)cc(-c3ccccc3)oc2c1)c1ccc(F)cc1
 : i, 0.49
> Cn1ncc(Cl)c1C(=O)N1CCC(Cc2ccccc2)CC1
 : i, 2.5
> CCCCNC(=O)c1c(CSc2ccc(Cl)cc2)noc1C(=O)NCCC
 : i, -0.69
> CCCCN1C(=O)CC(C(=O)OCC)=C1C
 : i, -0.5
> Cc1nc2sccn2c(=O)c1S(=O)(=O)Nc1cccc(Cl)c1C
 : i, 1.9
> COC(=O)c1ccc(C23CC4(C2)[C@H](CN(Cc2cccnc2)[C@@H]4c2ccccc2)C3c2ccc(C(F)(F)F)cc2)cc1 (some centres not stated)
 : i, 1.5
> CCOC(=O)c1sc2nc3n(c(=O)c2c1C)CCC3
 : i, -2.3
> COc1ccccc1C(=O)NCc1n[nH]c(=S)n1Cc1ccccc1
 : i, 1
> COC(=O)COc1cc(Br)c(/C=C2/SC(=O)N(CC(=O)N3CCCC3)C2=O)cc1OC
 : i, 0.84
> COC(=O)C1=C(C)N(Cc2ccccc2)C(=S)N[C@H]1c1ccccc1
 : i, 0.67
> O=C(Nc1ccc(Cl)cc1C(=O)N1CCOCC1)c1ccco1
 : i, 1
> CCCOP(=O)(c1ccc(N(C)C)cc1)C(O)c1ccc(Cl)cc1 (configuration not stated)
 : i, -0.98
> Cc1ccc2c(c1)N(C(=O)CCC(=O)NCc1cccc(F)c1)CCO2
 : i, 0.12
> Cc1ccc(S(=O)(=O)N2CCCC(C(=O)NCCc3ccccc3)C2)cc1 (configuration not stated)
 : i, -0.27
> Clc1ccc(CN2CCN(c3ncnc4scc(-c5cccs5)c34)CC2)cc1
 : i, -0.28
> Cc1ccc(N(CC(=O)NC2CCCC2)C(=O)CCC(=O)Nc2ccccn2)cc1
 : i, 1.8
> COc1ccc(N(CC(=O)NCCSc2ccccn2)S(=O)(=O)c2ccccc2)cc1OC
 : i, -0.26
> O=c1nc(-c2ccccc2)c2cc(SC(F)F)ccc2[nH]1
 : i, 0.01
> COc1ccc(C2CC(c3ccc(Cl)cc3)=NN2C(=O)c2cccc([N+](=O)[O-])c2)cc1 (configuration not stated)
 : i, 0.01
> CC(=O)NCC(=O)N[C@@H](CC(=O)OCc1ccccc1)C(=O)OCc1ccccc1
 : i, 1.3
> CC(c1ccccc1)N1CC(C(=O)O)CC1=O (configuration not stated)
 : i, 0.2
> Cn1nccc1C(=O)N1CCC(Cc2ccccc2)CC1
 : i, -0.42
> CC1CCN(CCCn2c(SCC(=O)Nc3ccccc3Cl)nc3ccccc3c2=O)CC1
 : i, -0.21
> CCn1cc([N+](=O)[O-])c(C(=O)Nc2ccn(Cc3ccccc3F)n2)n1
 : i, 0.06
> Cc1cc(S(=O)(=O)NCCCN2CCOCC2)c(Cl)cc1Cl
 : i, 0.55
> COc1ccc(CNC(=O)C2CCN(c3nnc(N4CCCC4=O)s3)CC2)cc1
 : i, -1.7
> N#CCC(=O)Nc1ccc(C(=O)OCC(=O)NC(=O)Cc2ccccc2)cc1
 : i, 0.26
> CN1C(=O)C(C)(C)c2cc(S(=O)(=O)NCCc3ccc(Cl)cc3)ccc21
 : i, -0.36
> O=C(NCCCNC(=O)c1ccco1)c1ccc(Cl)cc1
 : i, 0.27
> CCCCNC(=O)CN1CCN(Cc2ccc3cc(OC)ccc3c2)CC1
 : i, 3.2
> CC(=O)Oc1ccc2ccccc2c1C(NC(=O)Cc1ccccc1)c1ccccc1 (configuration not stated)
 : i, 1.3
> O=C(NC(=S)Nc1cccc(NC(=S)NC(=O)c2ccco2)n1)c1ccco1
 : i, -2.2
> COc1ccc(NC(=O)NS(=O)(=O)c2ccc(C)cc2)cn1
 : i, 4.7
> CCn1cc(C(=O)N2CCN(c3ccc(OC)cc3)CC2)c(=O)c2cc(S(=O)(=O)N3CCCCC3)ccc21
 : i, -1.3
> COC(=O)c1ccc(CNC(=O)CSc2nnc(COc3ccccc3)n2C)o1
 : i, 0.81
> Cc1ccccc1NC(=S)NC(C)CCc1ccccc1 (configuration not stated)
 : i, -0.51
> Cc1cnccc1CN(C)C(=O)C1CCC(=O)N(Cc2ccccc2F)C1 (configuration not stated)
 : i, -0.72
> CCN(CC)S(=O)(=O)c1ccc(-c2nnc(SCC(=O)N3CCc4ccccc43)o2)cc1
 : i, 0.62
> Cc1cccc(C)c1OCCN1C(=O)NC(C)(c2ccccc2)C1=O (configuration not stated)
 : i, 3.8
> O=C(NC(=S)NCc1cccnc1)c1ccccc1[N+](=O)[O-]
 : i, 1.7
> CC1=NNC(=O)C1CC(=O)N/N=C/C(C)=C/c1ccccc1 (configuration not stated)
 : i, 1
> Cc1cc(C)c(S(=O)(=O)N2CCN(C(=O)c3cccs3)CC2)c(C)c1
 : i, 4
> COCCN1CN(S(=O)(=O)c2ccc(Cl)cc2)c2nc3ccccc3nc21
 : i, -0.05
> COc1ccccc1/C=C/C=N/NC(=O)CCn1nnc2ccccc21
 : i, -0.9
> CCC(=O)Oc1ccc2c(C)cc(=O)oc2c1C(=O)c1ccccc1
 : i, -0.68
> CSc1nnc(CNC(=O)c2ccccc2)n1-c1cccc(C)c1
 : i, 3
> CCOC(=O)N1CCN(C(=O)Cn2nc(C)n3nc(-c4ccccc4)cc3c2=O)CC1
 : i, 1.4

Of the compounds above, these have a CF3 group:
Values run as follows: KCNQ2 block, KCNQ2 block baseline
> Cc1ccc(C2=NC(C(F)(F)F)(C(F)(F)F)c3c(n(-c4ccc(F)cc4)c(=O)[nH]c3=O)N2)cc1
 : i, 1.5
> COC(=O)c1ccc(C23CC4(C2)[C@H](CN(Cc2cccnc2)[C@@H]4c2ccccc2)C3c2ccc(C(F)(F)F)cc2)cc1 (some centres not stated)
 : i, 1.5

(list continues)
Values run as follows: KCNQ2 block, KCNQ2 block baseline
> CC1CN(S(=O)(=O)c2ccc(C(=O)O)cc2)CC(C)O1 (configuration not stated)
 : i, 4.4
> Cc1nc(C)c(/C(O)=C/c2nc3ccc([N+](=O)[O-])cc3oc2=O)o1
 : i, 1.2
> CN(C)/C=C/C(=O)c1cnc(-c2ccccc2Cl)s1
 : i, -1.4
> CC(Oc1cccc(Cl)c1)C(=O)Nc1nc(-c2ccccn2)cs1 (configuration not stated)
 : i, 1.5
> CCOC(=O)C(NC(C)=O)(NS(=O)(=O)c1ccccc1)C(F)(F)F (configuration not stated)
 : i, 1
> Cc1cccc(CN2CCN(CC(=O)NCCCN3CCCC3=O)C2=O)c1
 : i, -0.26
> CCc1ccc2[nH]cc(C(=O)N3CCCCCC3)c(=O)c2c1
 : i, -0.47
> COc1ccc(/C=N/Nc2nncc3ccccc23)cc1
 : i, -0.1
> COc1ccccc1N1CCN(C(=O)CCNS(=O)(=O)c2ccc3c(c2)CCC(=O)N3)CC1
 : i, -1.5
> Cn1c(N2CCOCC2)c(C=O)c2ccccc21
 : i, -1.2
> CC(=O)N1CC(=O)N=C1SCC(=O)Nc1nc(-c2ccccc2)c(-c2ccccc2)s1
 : i, 0.09
> Cc1c(CCO)sc[n+]1CC(=O)OC12CC3CC(CC(C3)C1)C2
 : i, -1.9
> C=CCNC(=O)c1ccccc1S(=O)c1ccccc1C#N (configuration not stated)
 : i, 2.1
> CCN1CCN(C(=O)Cn2ncc3c([nH]c4ccc(C)cc43)c2=O)CC1
 : i, -1.4
> O=c1[nH]c(=O)n(Cc2ccc(Oc3ccccc3)cc2)cc1Br
 : i, 0.02
> Cn1cc(CN2CCC(C(O)CCc3ccccc3)CC2)c(-c2ccccc2F)n1 (configuration not stated)
 : i, -1
> O=C(CCn1c(=O)c2cccn2c2ccccc21)Nc1ccc(F)cc1
 : i, -1
> COc1ccccc1NC(=O)c1cc2n(n1)C(C(F)(F)F)CC(c1ccc3c(c1)OCO3)N2 (configuration not stated)
 : i, 0.01
> O=C1CC(N(O)c2ccccc2)C(=O)N1c1cc(Cl)cc(Cl)c1 (configuration not stated)
 : i, 1.4
> Cc1occc1C(=O)N/N=C/c1ccc(Cl)c([N+](=O)[O-])c1
 : i, -1.2
> Nc1nc(N)nc(-c2cc(Cl)ccc2Cl)n1
 : i, 0.37
> Cc1c(C(=O)O)cccc1-c1ccc(C=O)o1
 : i, -0.92
> COC(=O)C1=NNC2C(=O)N(c3ccc(C)cc3)C(=O)C12 (configuration not stated)
 : i, 0.47
> CCOc1ncccc1C(=O)N(C)CC(=O)Nc1ccc(F)cc1
 : i, -0.82
> O=C(CN1CCN(c2ccccn2)CC1)Nc1ccccc1
 : i, -0.74
> CC(Sc1nnc(C(F)(F)F)n1C)C(=O)Nc1ccc(S(N)(=O)=O)cc1 (configuration not stated)
 : i, 0.02
> Cc1ccc(NC(=O)N2CCc3ccccc32)cc1C
 : i, 2.7
> OCC(O)/C=N/Nc1nc2ccccc2s1 (configuration not stated)
 : i, 0.79
> NC(=O)C1c2ccccc2CSc2ccccc21 (configuration not stated)
 : i, -0.72
> CC(C)c1cc(=O)n2c(nc3ccccc32)[nH]1
 : i, -2.3

Reprinted at random: 7 entries already listed, in no set order.
Values run as follows: KCNQ2 block, KCNQ2 block baseline
> COC(=O)C1=NNC2C(=O)N(c3ccc(C)cc3)C(=O)C12 (configuration not stated)
 : i, 0.47
> Cc1c(C(=O)O)cccc1-c1ccc(C=O)o1
 : i, -0.92
> Cc1ccc(NC(=O)N2CCc3ccccc32)cc1C
 : i, 2.7
> Cc1occc1C(=O)N/N=C/c1ccc(Cl)c([N+](=O)[O-])c1
 : i, -1.2
> OCC(O)/C=N/Nc1nc2ccccc2s1 (configuration not stated)
 : i, 0.79
> O=C(CN1CCN(c2ccccn2)CC1)Nc1ccccc1
 : i, -0.74
> O=C(CCn1c(=O)c2cccn2c2ccccc21)Nc1ccc(F)cc1
 : i, -1

Remaining list, next part
Values run as follows: KCNQ2 block, KCNQ2 block baseline
> COc1ccc(N(C(=O)c2ccco2)C(C(=O)NC2CCCC2)c2ccc(N(C)C)cc2)cc1OC (configuration not stated)
 : i, -1.4
> CCCCC(C(=O)NC1CCCC1)N(Cc1ccccc1)C(=O)c1snc(C(N)=O)c1N (configuration not stated)
 : i, -2.2
> Cc1ccc(OCC(O)CN2C(=O)NC(C)(C)C2=O)c(C)c1 (configuration not stated)
 : i, 2.4
> O=[N+]([O-])c1cc(/C=N/O)ccc1N1CCCC1
 : i, 0.06
> O=C(NNC(=O)c1cc2ccccc2o1)c1ccc(Cl)cc1
 : i, 0.18
> CCOC(=O)C1CCN(C(=O)CC(NS(=O)(=O)c2ccc(OC)cc2)C(C)C)CC1 (configuration not stated)
 : i, -0.74
> CCN(CC)C(=O)C(C)N(C#N)c1nc(NC(C)C)nc(NC(C)C)n1 (configuration not stated)
 : i, 0.43
> O=C(CSc1ncn[nH]1)N1CCOCC1
 : i, -0.15
> CC(C)(C)c1[nH]nc2c1C(Cc1ccccc1)C(C#N)=C(N)O2 (configuration not stated)
 : i, -1.2
> CC(C)c1cccc(C(C)C)c1NC(=O)Cn1c(=O)cnc2ccccc21
 : i, -3.2
> CC(C)CC1=NN2C(=N)/C(=C\c3coc4ccccc4c3=O)C(=O)N=C2S1
 : i, 41
> S=C(c1ccc2c(c1)OCO2)N1CCCCCC1
 : i, -0.49
> COc1ccc(CCNC(=O)C2CC(=O)N(c3ccc(C)cc3)C2)cc1 (configuration not stated)
 : i, 1.2
> CCN(CC)S(=O)(=O)c1ccc(OC)c(NC(=O)CSc2cc(Cl)ccc2Cl)c1
 : i, -0.56
> O=c1[nH]c2ccccc2nc1/C=C/c1ccccc1
 : i, 0.02
> CCOC(=O)c1ccc(N2C(=O)C3C(/C=C/c4ccccc4)OC4(C(=O)c5ccccc5C4=O)C3C2=O)cc1 (configuration not stated)
 : i, -2
> CCOC(=O)c1ccc(NC(=O)CSc2nc3sc(C(=O)O)c(C)c3c(=O)[nH]2)cc1
 : i, -0.82
> O=S(=O)(NC1=NCCCCC1)c1ccc2ccccc2c1
 : i, -0.28
> COc1ccc(CNC(=O)CN(C(=O)CCC(=O)Nc2ccccn2)c2cccc(C)c2)cc1
 : i, -0.43
> CCn1c(-c2cc(OC)c(OC)c(OC)c2)n[nH]c1=S
 : i, 0.33
> O=C(O)CSc1nnc(COc2cccc3cccnc23)n1-c1cccc(C(F)(F)F)c1
 : i, -0.17
> CCCC1C2CN(C(C)C)CC=C2C(C#N)=C(N)C1(C#N)C#N (configuration not stated)
 : i, 2.7
> CC1S/C(=N/N=C/c2ccco2)NC1=O (configuration not stated)
 : i, 0.27
> C=CCc1cc(C)ccc1OCCCC(C(=O)OCC)C(=O)OCC
 : i, 0.16

High-throughput results as filed in PubChem.
